# Compound activity: PubChem, several laboratories
# PrP 5UTR inh: inhibition of PrP 5' UTR reporter expression. cell-based PrP 5' UTR mRNA reporter, plate reader. inhibition, % (concentration not given with the values). 340,000 compounds, 0.35% hits. AID 488862, 2010;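 active means every replicate at 50% or more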;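 further: 0 = median of the neutral control wells; tested in H4 reporter cells; numbers are from one replicate; inactives centre near -14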
# Sa RN4220 lethal: growth inhibition of S. aureus RN4220, primary screen, OD600 | 16 h | inhibition, % (no concentration beside the values) | 330,000 compounds, 0.33% hits;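 active means z-score of -3 or lower and OD600 up to 0.18 on both plates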;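 further: plate controls were untreated cells for no effect and reference antibiotic for full effect; stock transfer was 100 nL into about 80 µL; one replicate is shown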
# Autofluor counter: counter-screen for toxin protease inhibitors: compound fluorescence | 360,000 compounds, 3.1% hits | compound autofluorescence counterscreen, microsphere flow cytometry; stronger effect = higher value | fluorescence intensity (concentration not given with the values);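 active means at least 3 SD above the mean of all compounds, about 16000 in these data; inconclusive means too few beads counted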;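 further: 100 nL of 1 mM stock went into each well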
# Mtb hypoxia inh: PubChem AID 1159583; M. tuberculosis hypoxia-regulated fluorescent reporter, fluorescence; fluorescence inhibition, % (concentration not given with the values); 300,000 compounds, 0.1% hits;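 active means 35 to 45% if threefold the growth effect, above 45% if 1.5-fold the growth effect; inactive means the rest, general growth blockers included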;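 further: wells of about 50 µL received 100 nL stock; 0% = vehicle wells and 100% = reference inhibitor wells; whole bacteria with a GFP reporter of the hypoxia response; strong numbers were not always called active; many hits fall short of the cut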
# BJeLR viability: MLPCN primary cell-based screen for lethality selective to Ras in HRASV12 cells; BJeLR (HRASV12) viability, CellTiter-Glo ATP luminescence, 48 h; reference of the scale not given here; inhibition, % (no concentration beside the values); 300,000 compounds, 0.17% hits;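 active means replicate mean above 50%; inconclusive means above 50% but judged a plate artefact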;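 further: 50 nL library stock added to about 25 µL; numbers are from one replicate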
# ugtP null kill: growth inhibition of ugtP-null S. aureus, primary screen, RN4220 ugtP deletion, OD600; 16 h; some inactives read as strong as hits; growth inhibition, % (concentration not given with the values); 330,000 compounds, 0.54% hits; AID 1259309, 2017;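 active means z-score under -3 and OD600 up to 0.15 on both plates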;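 further: plate controls were untreated wells for no effect and antibiotic for full effect; wells of about 80 µL received 100 nL stock; the first replicate is given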
# Mtb hypoxia inh growth: further read-out of Mtb hypoxia inh, marked with its call; growth inhibition, %; measured here: M. tuberculosis growth (absorbance);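 0% = vehicle and 100% = reference antibiotic; read after six days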
# Active calls of the source: *; ? = inconclusive; / = not tested or not shown; & = joins results of further samples.
SMILES,PrP 5UTR inh,Sa RN4220 lethal,Autofluor counter,Mtb hypoxia inh,Mtb hypoxia inh growth,BJeLR viability,ugtP null kill
CCN(CC)C(=O)C1CCCN(c2ccc([N+](=O)[O-])cc2/C=N/NC(=O)c2cccc(Br)c2)C1 (stereo unspecified),-19,/,3581,/,/,-2,/
Cc1ccc(S(=O)(=O)N2CCCC(C(=O)NCc3ccccn3)C2)cc1 (stereo unspecified),-29,1.5,4440,8,9,11,0
O=C(Nc1nnc(CCS(=O)(=O)c2ccc3ccccc3c2)s1)c1ccc([N+](=O)[O-])cc1,-13,1.2,2086,1,-1,-16,-3
Oc1cccc(/C=N/Nc2nn3cnnc3c3ccccc23)c1,6,/,3272,/,/,4,/
CCOC(=O)C1=C(O)C(=Cc2cc(OC)c(OC)c(OC)c2)N=C1C,/,0.9,/,0,10,/,-2
O=c1c2c3nc4ccccc4nc3n(CC3CCCO3)c2ncn1CCc1ccccc1 (stereo unspecified),1,3.2,2358,/,/,-4,1
C[N+]1(CCCCCCC(=O)C=NO)CCCCCC1,/,11,/,16,9,/,-1
O=C1/C(=C/c2ccc(O)c([N+](=O)[O-])c2)SC(=S)N1Cc1ccccc1,-26,/,2780,/,/,10,/
COc1ccc(NC(=O)CSCC(=O)Nc2ccc(S(=O)(=O)N3CCCCC3)cc2)cc1,-9,5.0,4673,-4,-1,-3,4
Cc1ccc2[nH]c(C(F)(F)F)cc(=O)c2c1,-11,-1.6,4320,16,20,0,-2
N#C/C(=N\Nc1ccccc1F)C(=N)N1CCCCC1,-82,/,3193,/,/,3,/
COc1cccc(NC(=O)N2CCC(NC(=O)C(Cc3ccccc3OC)NC(C)=O)CC2)c1 (stereo unspecified),-8,1.7,6092,-7,4,-7,4
O=C(CSc1ccc(-c2ccccn2)nn1)Nc1nccs1,-53,4.6,4399,17,15,0,11
CC(C)(C)NC(=O)C(c1ccco1)N(C(=O)Cn1nnc(-c2ccc(F)cc2)n1)c1ccccc1F (stereo unspecified),-33,-0.7,10003,-6,0,-10,-11
CS(=O)(=O)N(CC(=O)Nc1cccc(Br)c1)Cc1ccccc1,-15,16,3542,6,1,-12,-1
O=c1cc[nH]c2c(C(F)(F)F)cccc12,-7,9.5,3418,/,/,6,4
CC(=O)OC1(C(F)(F)F)Oc2ccccc2NC1=O (stereo unspecified),-32,0.0,18158*,-2,-10,-9,2
CC(C)Nc1nc(NC(C)C)nc(N(C#N)CCOc2ccc(Cl)cc2Cl)n1,-20,-8.3,7923,8,4,10,-28
O=C(c1ccncc1)N(c1ccc2oc3c(c2c1)CCCC3)S(=O)(=O)c1ccc(F)cc1,-3,-0.6,2441,16,11,-7,78
Cc1cc(C)nc(N2CCCC(C(=O)NC(C)CCc3ccco3)C2)n1 (stereo unspecified),-9,2.0,23504*,8,-1,-12,6
CCOC(CCNC(=O)c1cn(CCOC)c(=O)c2c1c1ccccc1n2C)OCC,-10,2.5,3758,-3,-5,-2,2
N#C/C(=C/c1cccc([N+](=O)[O-])c1)c1nnc2n1CCCCC2,-11,5.8,1986,11,12,12,-4
Cc1cc(NC(=O)CSc2nnc(C3COc4ccccc4O3)n2C)no1 (stereo unspecified),-20,-0.3,3907,-8,4,-21,-9
Cc1ccc(N(C(=O)Cn2nnc(-c3ccccc3)n2)C(C(=O)NC2CCCCC2)c2ccccn2)cc1C (stereo unspecified),-9,4.2,1875,5,2,-16,12
NS(=O)(=O)c1ccc(Nc2nc(-c3ccc4ccccc4c3)cs2)cc1,1,-8.3,12119,5,12,9,-4
NC(=O)c1cc[n+](CC(=O)NC(=O)Nc2ccccc2)cc1,-14,7.2,/,12,3,/,2
Cc1cccc(NC(=S)NCC(C)CSc2ccc(Cl)cc2)c1 (stereo unspecified),-13,/,4880,/,/,5,/
CC(=O)Nc1nnc(SCC(=O)NC2CCCC2)s1,-16,-1.7,3884,4,-2,4,8
COC(=O)c1sc(SC)nc1N,/,2.6,/,5,-5,0,-3
Cc1ccc2nc(/C(C#N)=C/c3ccc(-c4cccc([N+](=O)[O-])c4)o3)[nH]c2c1,-15,1.1,2966,18,0,/,-13
O=C(Nc1ccccc1)C1CC(O)CN1S(=O)(=O)c1ccc([N+](=O)[O-])cc1 (stereo unspecified),-12,11,4582,7,1,-2,17
CC(=NNC(=O)C(N)=O)c1cccc([N+](=O)[O-])c1,/,-2.5,/,-1,-7,/,-8
CN1CCN(C(=O)C2=C[C@@H](c3coc4ccccc4c3=O)C[C@@H](OCCCCO)O2)CC1,-18,/,3029,/,/,-3,/
Cc1ccc(NS(=O)(=O)c2ccc(-c3csc(C)n3)s2)c(C)c1,-27,9.6,5464,15,-5,-3,7
COc1ccc(NS(=O)(=O)c2ccc(NC(=O)c3ccccn3)cc2)cc1,-12,-6.3,?,-9,3,/,-7
Cc1ccc(Cn2cc(C=NNC(=O)Cc3nnc(NC(=O)c4ccc(C)cc4)s3)c3ccccc32)cc1,/,1.9,/,19,-6,/,0

# Entries of single compounds, looked up by structure. Screens in order: PrP 5UTR inh	Sa RN4220 lethal	Autofluor counter	Mtb hypoxia inh	Mtb hypoxia inh growth	BJeLR viability	ugtP null kill
# CC(=O)Nc1nnc(SCC(=O)NC2CCCC2)s1 is listed as -16	-1.7	3884	4	-2	4	8
# COc1ccc(NS(=O)(=O)c2ccc(NC(=O)c3ccccn3)cc2)cc1 is listed as -12	-6.3	?	-9	3	/	-7
# NC(=O)c1cc[n+](CC(=O)NC(=O)Nc2ccccc2)cc1 is listed as -14	7.2	/	12	3	/	2
# NS(=O)(=O)c1ccc(Nc2nc(-c3ccc4ccccc4c3)cs2)cc1 is listed as 1	-8.3	12119	5	12	9	-4
# Cc1ccc(Cn2cc(C=NNC(=O)Cc3nnc(NC(=O)c4ccc(C)cc4)s3)c3ccccc32)cc1 is listed as /	1.9	/	19	-6	/	0

# Next records follow.
SMILES,PrP 5UTR inh,Sa RN4220 lethal,Autofluor counter,Mtb hypoxia inh,Mtb hypoxia inh growth,BJeLR viability,ugtP null kill
COc1ccc(S(=O)(=O)N2CCN(C(=O)c3ccco3)CC2)c(C)c1C,-18,0.1,3678,11,6,2,-1
CCN(C(=O)COc1ncnc2ccc(Br)cc12)C1CCS(=O)(=O)C1 (stereo unspecified),-30,0.6,8842,0,10,2,5
CNc1ccc(Br)cc(C(=O)/C=C/c2cc(OC)ccc2OC)c1=O,-32,5.0,17230*,10,16,1,-7
N#Cc1nc(COc2ccc(F)cc2)oc1NCCN1CCOCC1,-7,4.2,4219,11,5,-1,1
COc1ccc(-c2nnc(SCC(=O)NCCC(C)C)nc2-c2ccc(OC)c(OC)c2)cc1OC,-10,0.2,4370,5,13,0,-1
COc1ccc(C(=O)N[C@H]2COC(C)(C)O[C@H]2c2ccccc2)cc1,-17,4.5,3783,/,/,-4,9
c1cc(CSc2nnc(-c3ccc4c(c3)OCO4)o2)ccn1,-35,0.9,7000,-68,-20,-8,0
Cc1cccc(N2C(=S)N=C(Nc3c(C)cccc3C)C23CCOC(C)(C)C3)c1 (stereo unspecified),-6,3.9,2982,7,1,5,3
C=CCOc1nc(-c2ccccc2Cl)nc2ccccc12,-39,3.6,3809,10,4,15,37
Cc1ccc(Cn2c(=O)n(-c3ccccc3)c(=O)c3ccc(C(=O)NCc4ccco4)cc32)cc1,-5,-1.4,4117,/,/,-1,13
Cc1cc(NC(=O)CSCC(=O)N2CCN(c3cccc(C)c3C)CC2)no1,-15,-3.6,3230,-9,-7,/,-1
Cc1ccc(CN(C#N)c2nc(C)cc(C)n2)cc1,-18,3.7,2779,15,15,4,4
Cc1cc(/C=N/Nc2nc(N3CCOCC3)nc(N3CCOCC3)n2)c(C)n1-c1ccccc1,-26,/,4758,/,/,-4,/
COc1ccc(OC)c(NC(=S)NCc2ccco2)c1,-10,3.7,4056,/,/,-1,7
Cc1ccccc1Nc1c(-c2ccccn2)nc2c(C)cccn12,2,-1.0,3972,-3,1,-1,4
CC(C)CC(C(=O)O)N1C(=O)[C@@H]2[C@H](C1=O)[C@@H]1C[C@H]2C(Br)C1Br (stereo partly specified),-11,3.5,9146,10,-4,11,7
Cc1c(C(=O)N/N=C/c2cccnc2)nnn1-c1nonc1N,-19,/,5463,/,/,9,/
CC(C)C(=O)c1cn(CC(=O)NCC2CCCO2)c2ccccc12 (stereo unspecified),-26,4.4,3167,6,6,0,9
O=C(NC1CCCCC1)C(c1ccc(F)cc1)N(C(=O)Cc1ccsc1)c1ccc(F)cc1 (stereo unspecified),-11,8.3,5462,8,3,11,-4
COc1ccc(OCC(=O)NN=Cc2ccsc2)cc1,/,4.6,/,19,9,/,0
CCCCCn1c(NC(=O)c2ccco2)c(C(=O)OCC)c2nc3ccccc3nc21,3,33,2156,8,6,-11,-1
O=S(=O)(c1ccc2nnn(O)c2c1)N1CCCCC1,-16,2.2,3943,6,3,-12,10
CC(C)(C)CC(=O)N[C@@H](Cc1ccccc1)c1nc2ccccc2[nH]1,-20,2.8,3945,-3,-6,2,3
C/C(=N\Nc1cc(N2CCOCC2)ncn1)c1ccccc1,-50,/,4198,/,/,-3,/
COc1cc(C(=O)N2CCC(O)(c3ccccc3)CC2)cc(OC)c1OC,-21,1.8,8274,7,6,-3,-1
O=C(c1ccco1)N1CCN(c2ccc(F)cc2)CC1,-11,1.6,2321,2,-7,-1,10
COc1ccccc1-c1nnc2sc(-c3cnccn3)nn12,-9,5.7,5044,6,-6,-4,1
CN1CC(=O)N=C1N,-13&-30,3.3&6.8,5727&5703,9&2,4&1,-6&-1,0&0
Cc1cccc(N2CCN(C(=O)Cc3cn(C)c4ccccc34)CC2)c1C,-9,1.4,3967,9,4,8,8
O=[N+]([O-])c1ccc(N2CCN(c3ccc(O)cc3)CC2)c(Cl)c1,4,-2.2,2340,2,5,0,-18
O=C(OCc1nc2ccsc2c(=O)[nH]1)c1ccc(Cl)s1,-12,3.7,5101,7,0,4,4
CCCc1cc(=O)n2nc(N3CCC(C(=O)N4CCN(c5ccc(OC)cc5)CC4)CC3)sc2n1,-19,-4.8,5873,5,-9,11,13
COc1ccc(C(=O)N/N=C(\C)c2ccc(NC(=O)Cc3ccccc3)cc2)c(OC)c1,-1,/,5523,/,/,-2,/
Cn1c(-c2ccc(F)cc2)cnc1NCc1cccc(F)c1,-7,-2.1,4025,-1,10,-3,-8
O=C(Nc1ccc2c(c1)OCO2)N1CCN(C(=O)C2CCCO2)CC1 (stereo unspecified),-12,1.2,6386,5,3,2,2
COc1ccccc1CNC(=O)COn1nnc2ccc(S(=O)(=O)N3CCOCC3)cc21,-17,0.6,?,3,0,-18,11
Cc1ccc(C2/C=C\CC(NC(=O)OCC3c4ccccc4-c4ccccc43)CC(=O)N2Cc2ccccc2)cc1 (stereo unspecified),-12,-2.1,3685,2,5,/,-6
CCCOCCOC(=O)c1[nH]c2c(c1C)C(=O)CC(c1cc(OC)ccc1OC)C2 (stereo unspecified),-11,2.0,6176,/,/,23,1
Cc1ccc(S(=O)(=O)N2CCN(C(C)C(=O)N3CCCc4ccccc43)CC2)cc1 (stereo unspecified),-1,8.7,3681,/,/,2,-1
CCCCN(C(=O)CSCC(=O)Nc1ccc(C)cc1)c1c(N)n(Cc2ccccc2)c(=O)[nH]c1=O,-17,-1.4,3455,-1,-6,14,9
COc1cccc(C2=NOC(C(=O)N3CCN(Cc4ccccc4)CC3)C2)c1OC (stereo unspecified),/,3.9,10194,-3,0,2,7
COc1ccc(-c2csc(Nc3cccc(C)n3)n2)cc1,-99,-5.5,4678,10,-5,5,12
CCc1nonc1NC(=O)COc1cc(C)c(Cl)c(C)c1,-30,-8.6,5331,-7,0,11,-32
Cc1ccnc2nc(C(=O)OCC(=O)NC3CCC(C)CC3)nn12 (stereo unspecified),-11,3.9,/,6,-3,/,5
Cc1ccc(NC(=S)N2CCN(S(C)(=O)=O)CC2)cc1C,-14,4.7,6155,5,5,/,6
CCCCCNC(=O)c1ccc2c(c1)ncn2-c1ccc(OC)cc1,-4,-3.8,3045,5,0,4,19
CCCCC12CN3CC(C)(CN(C1)C3c1ccc([N+](=O)[O-])o1)C2=O (stereo unspecified),-5,3.9,3594,7,-1,3,3
CCCCCN(C(=O)CCC(=O)OCCOc1ccccc1Cl)c1c(N)n(CCCC)c(=O)[nH]c1=O,3,1.1,4847,3,-8,-4,5
